# PABP polyA inh: PABP poly(A) RNA binding inhibitors, primary screen, biochemical, fluorescence polarization, uHTS; Polyadenylate-binding protein 1 (Homo sapiens), P11940; AID 2014, 2009; hit rate 1% among 290,000; inhibition, % at 35 µM;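 active means 50% or more with normal probe brightness, or confirmed in later tests; about a fifth of its hits are not listed in these tables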;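 further: calls also rest on retests at 20 µM and on dose response follow-up; controls were probe without protein and protein plus probe with vehicle; some compounds called inactive have numbers as strong as hits; many hits fall short of the cut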
# Target sequence (P11940 whole entry, looked up): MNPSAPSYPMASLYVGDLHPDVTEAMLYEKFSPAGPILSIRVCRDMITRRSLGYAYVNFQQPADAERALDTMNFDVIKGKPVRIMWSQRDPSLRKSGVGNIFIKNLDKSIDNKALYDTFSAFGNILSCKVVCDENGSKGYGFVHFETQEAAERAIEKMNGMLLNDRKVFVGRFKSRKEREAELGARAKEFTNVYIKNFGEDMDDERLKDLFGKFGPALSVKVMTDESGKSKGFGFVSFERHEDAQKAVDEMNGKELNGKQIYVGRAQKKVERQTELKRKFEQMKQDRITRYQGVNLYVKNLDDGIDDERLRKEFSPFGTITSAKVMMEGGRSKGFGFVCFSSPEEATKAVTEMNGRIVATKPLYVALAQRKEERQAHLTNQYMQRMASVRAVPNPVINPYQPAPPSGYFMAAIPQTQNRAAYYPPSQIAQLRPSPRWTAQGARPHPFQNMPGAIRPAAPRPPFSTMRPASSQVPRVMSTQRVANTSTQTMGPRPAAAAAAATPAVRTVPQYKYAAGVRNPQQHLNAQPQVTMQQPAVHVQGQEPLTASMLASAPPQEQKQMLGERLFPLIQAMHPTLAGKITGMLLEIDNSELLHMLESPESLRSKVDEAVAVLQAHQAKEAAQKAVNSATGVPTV
# Rce1 inh: yeast Rce1p protease inhibitors, primary screen, biochemical, fluorescence, cell-free homogeneous | CAAX prenyl protease 2 (Saccharomyces cerevisiae (strain ATCC 204508 / S288c)), Q03530 | yeast membranes, quenched prenylated peptide cleavage fluorescence | hit rate 0.27% among 290,000 | calls only;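 active means fall in fluorescence gain of 50% or more versus controls, with final raw signal at or below 3038400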;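 further: plate controls were neutral control wells for no effect and wells lacking membranes for full effect; tested at 10 µM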
# Target sequence (Q03530 whole entry, looked up): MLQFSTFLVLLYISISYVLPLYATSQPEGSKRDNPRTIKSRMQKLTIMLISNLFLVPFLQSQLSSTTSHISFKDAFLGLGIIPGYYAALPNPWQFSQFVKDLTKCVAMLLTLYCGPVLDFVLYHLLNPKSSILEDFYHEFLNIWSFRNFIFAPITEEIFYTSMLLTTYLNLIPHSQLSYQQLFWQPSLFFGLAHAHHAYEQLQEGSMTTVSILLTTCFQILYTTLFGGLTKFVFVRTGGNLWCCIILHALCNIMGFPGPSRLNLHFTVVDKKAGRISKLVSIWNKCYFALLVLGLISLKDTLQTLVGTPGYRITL
# eIF4H FP inh: human eIF4H binding inhibitors, primary screen, translation initiation inhibitor project, biochemical, uHTS, fluorescence polarization. hit rate 0.94% among 290,000. Eukaryotic translation initiation factor 4H (Homo sapiens), Q15056. inhibition, % at 35 µM. AID 2012, 2009. eIF4H fluorescence polarization binding assay;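 active means 50% or more with normal probe brightness, or confirmed in later tests; about a fifth of its hits are not listed in these tables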;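 further: calls also rest on retests at 20 µM and on dose response follow-up; 0% = protein and probe with vehicle and 100% = probe without protein; strong numbers were not always called active; many hits fall short of the cut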
# HIV Env fusion: inhibitors of HIV-1 Env-driven cell-cell fusion, primary screen, HeLa-JRFL effector, CEM21 target cells, luciferase | inhibition, % at 12.3 µM | hit rate 1.1% among 360,000;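 active means mean replicate inhibition score of at least 50 and every replicate individually at or above 50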;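 further: 0% = plate neutral controls and 100% = maraviroc near 300 nM; one replicate is shown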
# CSC inhib: cancer stem cell viability inhibitors, primary screen, luminescence; cancer stem cell-like cells viability; inhibition, % at 7.5 µM; hit rate 1.1% among 300,000; AID 2717, 2010;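 active means mean at 75% or more and at least half the replicates too; tested in HMLE shEcad cells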;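 further: 0% = median of negative and 100% = median of positive control wells; the first replicate is given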
# MT1-MMP act inh: blockers of MT1-MMP proenzyme processing, primary screen, HT1080 RFP-PRO-GFP cells, GFP/RFP fluorescence; Matrix metalloproteinase-14 (Homo sapiens), P50281; GFP/RFP ratio fluorescence, overnight; percent of plate control window, DMSO zero; GFP/RFP ratio change, % at 20 µM; hit rate 0.061% among 360,000;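 active means GFP/RFP ratio change of at least 30% with cell ATP level not reduced by more than half and red fluorescence within 50% of control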; further: strong numbers were not always called active
#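 Assay system: RFP-PRO-GFP reporter HT1080 cells; read-out basis: GFP/RFP fluorescence ratio; benchmarks: DMSO wells and RFP-L50D-GFP cells; doses: 20 µM single dose, 1% DMSO; schedule: overnight cell settling, then overnight compound exposure, 37 °C, 5% CO2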
# UUG fidelity: modulators of yeast start codon fidelity, primary screen, whole organism, S. cerevisiae, single point, plate reader | S. cerevisiae UUG-firefly luciferase reporter, luminescence/redox ratio | activity score, % at 18.7 µM | hit rate 0.13% among 350,000;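 active means replicate mean at a twofold rise or more, about +100% in these data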;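 further: firefly luciferase made from a UUG start codon reports start codon fidelity; reporter light over untreated wells divided by growth signal over untreated wells; some hits fall short of that in this replicate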
# eIF4H FP inh retest: recorded beside eIF4H FP inh, whose call it bears; inhibition, %; compound at 20 µM; confirmation average;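 mean of two retest wells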
# PABP polyA inh retest: further read-out of PABP polyA inh, marked with its call; inhibition, %; compound at 20 µM; confirmation repeats;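 mean of two retest wells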
# MT1-MMP act inh RFP: further read-out of MT1-MMP act inh, marked with its call; RFP signal change, %; measured here: RFP expression control read;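 0 = vehicle wells; hits needed this value within 50% of zero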
# The depositor's hits bear a star; i = inactive; x = not tested or not shown.
SMILES,PABP polyA inh,Rce1 inh,eIF4H FP inh,HIV Env fusion,CSC inhib,MT1-MMP act inh,MT1-MMP act inh RFP,UUG fidelity,others
Clc1ccc2c(N3CCOCC3)ccnc2c1,-0.3,i,-2.7,21.3,-12.3,1.0,-3.3,-5.9,
CCC1(CC)NC(=O)N(CC(=O)OCC(=O)Nc2sccc2C#N)C1=O,-9.1,i,44.0,10.8,-8.2,0.3,6.0,x,
CCOc1ccc(CC(C(N)=O)C(N)=O)cc1,-11.6,i,4.0,4.7,1.0,0.9,5.8,-1.6,
CN(CCC#N)C(=O)COC(=O)c1ccc2[nH]c3c(c2c1)CCCC3,-9.8,i,5.3,5.7,-0.9,8.0,4.0,x,
CCCN(Cc1ccccc1)S(=O)(=O)c1ccc(N2C(=O)CCC2=O)cc1,-2.9,i,-11.3,x,-1.8,7.0,6.4,-6.0,
CCC(C)C(NC(=O)C(C)NC(=O)CNC(=O)CNC(=O)OCc1ccccc1)C(=O)OC (stereo unspecified),-5.9,i,1.5,x,-5.9,4.0,11.5,-8.9,
CCOc1ccc(N2C(=O)CC(NCC3CCCO3)C2=O)cc1 (stereo unspecified),-9.1,i,2.5,1.1,8.7,-4.0,-4.7,-16.0,
O=C(COc1ccc(-n2cnnn2)cc1)Nc1ccccc1Cl,23.8,i,47.8,-6.7,4.6,0.4,-0.5,-0.7,
CCOC(=O)C1CCN(C(=O)Cn2nc(C)n3c(cc4cc(C)ccc43)c2=O)CC1,9.6,i,7.7,-0.3,0.2,0.0,-1.5,-11.9,
Cc1ccsc1C(=O)NNC(=O)c1ccc(NS(=O)(=O)c2cccs2)cc1,x,i,x,5.1,x,4.1,3.1,-14.6,
Cc1cc(C(=O)OCC(=O)NCc2cccs2)c2ccccc2n1,-15.4,i,-0.9,7.3,-1.1,-0.3,1.8,x,
Cc1cc(C)cc(N(C(C)C(=O)N2CCCC2)S(C)(=O)=O)c1 (stereo unspecified),3.1,i,-1.0,-5.0,-16.1,-2.1,1.0,-8.4,
COc1ccc(OCC(=O)NNC(=O)c2nn(C)c(=O)c3ccccc23)cc1,8.8,i,0.6,-22.1,-9.7,2.4,-0.7,1.6,
CCc1ccc(NC(=O)C2CCN(S(=O)(=O)c3cnc[nH]3)CC2)cc1,1.9,i,-4.3,0.9,8.5,-3.2,0.7,-17.2,
Cc1ccc(C2CC(c3ccc(NS(C)(=O)=O)cc3)=NN2C(=O)c2ccco2)cc1 (stereo unspecified),-11.0,i,-5.2,-4.7,10.1,1.3,-6.5,x,
COc1ccc(C(=O)N(C)Cc2ccc(C)o2)cc1OC1CCN(C(C)C)CC1,-6.9,i,-3.0,-7.1,2.1,-5.0,-2.1,-5.9,
CCOc1ccccc1Oc1c(C)oc2c(CN3CCN(CCO)CC3)c(O)ccc2c1=O,-5.2,i,-12.7,x,3.5,-1.6,1.6,x,
CNC(=O)N(O)C1N(/N=C/c2cc(Br)ccc2O)C(=S)SC1(C)C (stereo unspecified),14.2,i,2.5,-0.8,12.2,3.0,-0.3,-22.2,
CCSc1ccc(NC(=O)c2cccnc2)cc1,-5.0,x,-0.2,-23.6,-4.6,-10.7,-18.1,-5.3,
COc1ccc(NC(=O)c2cncc(Br)c2)cc1S(N)(=O)=O,6.7,i,12.0,-1.2,-17.7,2.1,4.6,-11.5,
Cc1ccccc1NC(=O)c1cccc(Cn2cc(Br)c([N+](=O)[O-])n2)c1,-8.4,i,2.1,-39.4,-0.7,0.4,-14.9,-7.9,
COc1cc(CNCc2ccc(Br)cc2)cc(OC)c1,3.6,i,-2.9,-9.1,-5.1,0.5,1.8,-15.5,
CC1Oc2ccccc2OC1(O)c1ccccn1 (stereo unspecified),-5.5,i,-14.6,x,-1.1,0.9,4.6,x,
O=C1CC(SC(=Nc2ccccc2)Nc2ccccc2)C(=O)N1c1ccc(Cl)c(Cl)c1 (stereo unspecified),-1.0,i,-4.4,x,36.1,4.3,-5.7,x,
O=C(c1cccc([N+](=O)[O-])c1)N1CCN(S(=O)(=O)/C=C/c2ccccc2)CC1,x,x,x,x,19.5,1.3,-4.9,-17.0,
OCCN(/C=N/c1nc(-c2ccc(Br)cc2)cs1)CCO,-8.2,i,-5.3,x,-7.3,11.2,-0.1,-9.9,
CC(=O)Nc1cc2c3ccccc3n(C)c2cc1[N+](=O)[O-],x,x,x,-108.9,x,6.9,-0.4,3.8,
O=C(NCc1ccccn1)c1ccc(/C=N/O)nc1,0.4,i,-0.2,x,-5.8,1.3,-1.7,-19.2,
Cn1nnc(NC(=O)/C=C/c2ccco2)n1,23.3,i,8.8,-6.5,-3.7,-1.6,5.0,-5.3,
Cc1ccc(NC(=S)NC(=O)C2CCCCC2)c(Br)c1,x,x,x,x,54.9,-1.3,-2.4,-32.8,
Cc1c(/C=N/NC(=O)c2ccc(O)cc2)c2ccccn2c1C(=O)c1ccc(F)cc1,2.8,i,9.7,x,29.6,3.3,-5.0,x,
O=C(Cn1nc(-c2cccc(Cl)c2)ccc1=O)Nc1ccc(C(=O)NC2CC2)cc1,-1.8,i,-13.5,-17.6,-5.7,5.4,6.4,0.4,
O=C(O)CCC(=O)Nc1nc2ccccc2s1,-0.3,i,4.4,-73.6,-13.1,-1.3,6.2,-11.2,
Cc1ccc(NC(=O)COC(=O)CSCC(=O)Nc2cc(C)on2)c(C)c1,x,i,x,-17.1,-8.3,2.8,1.9,-10.3,
COc1cccc(/C=C/C(=O)OCC(=O)Nc2ccc(Cl)c(S(=O)(=O)N(C)C)c2)c1,-13.2,i,-11.0,10.3,-12.4,-0.2,3.0,x,
Cc1cc(C)cc(NC(=O)Nc2ccc(NC(=O)c3ccccc3O)cc2)c1,-0.4,i,-0.3,-7.0,92.0*,-8.4,-4.2,-5.1,
Cc1ccccc1C=Nc1ccccc1C(N)=O,4.9,i,0.4,-11.3,-5.1,-4.9,-9.3,-28.3,
Cc1c(C(=O)Oc2ccc(F)cc2)sc2ncn(Cc3cccc(F)c3)c(=O)c12,-6.0,i,-3.8,3.4,14.1,2.2,3.2,-9.9,
NNc1nc(-c2ccccc2)c2ccccc2n1,-0.7,i,-4.3,-11.4,x,1.2,7.9,x,
COCc1nc2ccccc2n1Cc1ccccc1,5.4,i,-2.8,-90.4,-14.8,-2.3,-2.0,18.8,
CCOC(=O)CNC(=S)N(Cc1cccs1)C1CCCCC1,17.5,i,-2.1,8.5,x,-2.8,2.9,x,
CCc1ccccc1NC(=O)CN(c1ccc(OC)cc1OC)S(=O)(=O)c1ccccc1,10.4,i,61.3,-28.0,x,-4.0,-6.0,6.4,eIF4H FP inh retest=20.6;PABP polyA inh retest=-5.6
N#C/C(=C\c1ccccc1C(=O)O)c1nc2ccccc2[nH]1,6.6,i,10.3,9.3,-11.9,-3.0,5.4,-12.4,
Cc1cc(C)cc(NS(=O)(=O)c2ccc3[nH]c(=O)ccc3c2)c1,-5.0,i,-5.5,-5.5,-0.7,-3.3,-1.0,-9.2,
CC(C)OC(=O)/C(C#N)=C\c1cccnc1,-4.1,i,-9.2,8.4,-7.5,4.5,5.5,x,
CCn1c(C(=O)OC)cc2c1ccn2-c1ccc(F)cc1,2.1,i,-11.3,-199.8,38.7,1.8,-2.8,-9.2,
Cc1cc2c(=O)n(CC(=O)NCC(=O)N3CCN(Cc4ccccc4)CC3)cnc2s1,-4.5,i,-2.6,x,-5.4,8.2,0.1,1.2,
CC1CCCC(C)N1C(=O)COC(=O)CNC(=O)c1sc2ccccc2c1Cl (stereo unspecified),x,i,x,-2.4,-1.9,-1.3,-0.7,1.4,
O=C(NC(=O)c1ccccc1O)c1ccc(C(F)(F)F)cc1,12.6,i,-4.2,-26.6,1.5,0.7,-32.6,-10.7,
COc1ccc(NC(=O)CN(C)C(=O)c2ccc3ccccc3c2)cc1,x,x,x,-9.7,x,6.2,1.8,-13.9,
CCN(C(=O)c1cc2c(=O)[nH]c3ccc(C)cc3c2s1)c1ccc(F)cc1,3.8,i,-6.1,-16.1,x,-7.3,-0.3,x,
O=C(NC(Cc1ccccc1)C(=O)O)/C(=C\c1ccccc1)NC(=O)c1ccco1 (stereo unspecified),-0.6,i,-15.1,2.5,-7.2,-0.3,1.4,-16.9,
Cc1ccsc1C(=O)Nc1ccc(C(=O)O)cc1,-0.1,x,-7.7,x,13.9,6.1,10.1,x,
CCOc1ccc2nc(NCCCNS(=O)(=O)c3ccc(F)cc3)c(C#N)cc2c1,x,i,x,x,13.9,7.8,-3.8,x,
COc1ccc(-c2cnc(C(O)c3ccccc3)[nH]2)cc1 (stereo unspecified),x,x,x,-89.5,x,0.6,3.3,-21.9,
CN(C)S(=O)(=O)c1cc(NC(=O)CN2CCCc3ccccc32)ccc1Cl,-2.6,i,2.7,4.5,x,-9.7,3.2,0.8,
O=C(/C=C/c1ccco1)Nc1ccc2nn(-c3ccccc3)nc2c1,9.6,i,15.3,14.1,2.3,1.7,7.4,-11.9,
COc1ccc(CC(=O)NCc2ccc(Cl)cc2)cc1S(=O)(=O)N1CCOCC1,x,x,x,5.8,x,-0.7,-3.1,-7.2,
OC(COc1ccccc1)CN1CCC(Cc2ccccc2)CC1 (stereo unspecified),0.1,i,-13.4,-11.7,-13.0,3.8,3.5,3.1,
O=C(O)CNC(=S)N(Cc1ccccc1Cl)C1CCCCC1,-2.9,i,0.1,-8.0,10.2,-0.9,2.6,x,
# Additional entries
SMILES,PABP polyA inh,Rce1 inh,eIF4H FP inh,HIV Env fusion,CSC inhib,MT1-MMP act inh,MT1-MMP act inh RFP,UUG fidelity,others
CC(=O)Nc1cc(-c2ccccc2N(C)C)cn2c(-c3cccc(C(F)(F)F)c3)cnc12,x,x,x,8.6,x,-66.8,3.1,12.7,
FC(F)(F)COc1nc(N/N=C/c2cccnc2)nc(N2CCCCC2c2ccccn2)n1 (stereo unspecified),-4.7,i,3.0,-6.8,4.6,-4.0,-1.4,-18.4,
Cc1ccc(Nc2nc(-c3sc(NC(=O)c4ccc([N+](=O)[O-])cc4)nc3C)cs2)cc1,1.8,i,-9.6,x,15.8,x,x,x,
CCC1CCCCN1C(=S)Nc1cccc(S(=O)(=O)N(C)C)c1 (stereo unspecified),-5.1,i,-2.3,1.8,x,8.0,4.4,x,
COc1ccc2c(c1)[nH]c1c(Cl)ncnc12,3.9,i,11.3,-23.4,-13.5,7.4,-1.2,x,
COc1ccc(C)cc1S(=O)(=O)N(C)CC(=O)N1CCN(C)CC1,-10.1,i,0.8,x,-10.2,0.2,1.5,-20.8,
Cn1cccc1/C=N/N1CCN(c2ccccn2)CC1,-0.2,i,1.6,x,8.6,1.5,8.9,x,
S=C(c1ccc(Br)cc1)N1CCN(Cc2ccccc2)CC1,-5.7,i,-2.3,x,x,4.2,-4.6,4.1,

# Quoted at random: two records from the list, in no set order.
SMILES,PABP polyA inh,Rce1 inh,eIF4H FP inh,HIV Env fusion,CSC inhib,MT1-MMP act inh,MT1-MMP act inh RFP,UUG fidelity,others
COc1ccc2c(c1)[nH]c1c(Cl)ncnc12,3.9,i,11.3,-23.4,-13.5,7.4,-1.2,x,
Cn1cccc1/C=N/N1CCN(c2ccccn2)CC1,-0.2,i,1.6,x,8.6,1.5,8.9,x,
